miR-21 FLuc = qHTS Assay for Modulators of miRNAs and/orActivators of miR-21. HeLa miR-21 FLuc reporter, luciferase, 48 h. Potency, µM (series often up to 38.3 µM), for the others: at the top dose reporter change, positive = more light. 340,000 tested, under 10 active. AID 2288, 2010; active = well fitted rising curve with a large enough effect; inconclusive = small, poorly fitted or top-dose-only effect; inactive = no such curve, though single readings can be large or run the other way;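 also: % of control where 0% means no effect; miR-21 action dims this reporter so a rising signal means less miR-21 action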
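Compounds were titrated across several concentrations (up to approximately 40 uM) and incubated 48 hours with HeLa miR-21-FLuc reporter cells (miR-21 target sequence downstream of FLuc, endogenous miR-21). Readout was firefly luciferase luminescence after lytic detection reagent.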
GLA inh pH 4.5 = qHTS Assay for Inhibitors of Human alpha-Galactosidase at pH 4.5; Alpha-galactosidase A (Homo sapiens), P06280; purified enzyme, 4-MU-alpha-Gal fluorescence, pH 4.5; activity change, negative = inhibition, % at 105 µM; 230,000 tested, under 10 active; inconclusive = small, poorly fitted or top-dose-only inhibition, or a rising curve; inactive = flat fitted curve, though single readings scatter; no compound was filed as active;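 also: 0% = full activity with enzyme and -100% = basal without enzyme; dose as in the result columns while the protocol names 77 µM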
Target sequence (P06280 whole entry, looked up): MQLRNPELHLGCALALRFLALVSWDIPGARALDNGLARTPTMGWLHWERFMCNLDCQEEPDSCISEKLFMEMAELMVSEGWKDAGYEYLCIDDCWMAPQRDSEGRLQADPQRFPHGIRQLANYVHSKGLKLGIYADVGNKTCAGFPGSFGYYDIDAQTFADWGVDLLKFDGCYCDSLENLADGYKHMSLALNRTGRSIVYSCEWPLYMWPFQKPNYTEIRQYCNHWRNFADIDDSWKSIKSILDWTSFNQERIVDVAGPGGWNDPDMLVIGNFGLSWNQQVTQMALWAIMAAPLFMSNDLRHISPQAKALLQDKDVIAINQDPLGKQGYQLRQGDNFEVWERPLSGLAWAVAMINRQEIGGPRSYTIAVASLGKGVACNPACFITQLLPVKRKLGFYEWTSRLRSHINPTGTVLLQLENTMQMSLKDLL
Rango-impB inh = qHTS Assay for Inhibitors of Rango (Ran-regulated importin-beta cargo) - Importin beta complex formation. Rango CFP/YFP FRET sensor + importin beta, 45 min. Potency, µM (doses to about 92.2 µM), without a hit: at the top dose inhibition of complex formation. actives 0.031% (n = 340,000); active = rising FRET ratio curve, often small or poorly fitted; inconclusive = mostly compound fluorescence or quenching in the first reads; inactive = flat curves in all reads;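 also: potency is read from the fitted curve at half-maximal effect; 0% = DMSO wells and 100% = buffer wells lacking importin beta; nearly all actives have a fitted effect of over 15% in size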
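FRET biosensor (snurportin 1 IBB flanked by EYFP and cerulean), 50 nM, with compound 5 min, then 0.125 microM importin beta in PBS, 1 mM DTT, 0.02% Tween-20, 0.1% BSA. CFP/YFP ratio read after 45 min at room temperature; pre-read flags interference.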
Rango dissoc inh = qHTS Assay for Inhibitors of RanGTP induced Rango (Ran-regulated importin-beta cargo) - Importin beta complex dissociation; Snurportin-1 (Homo sapiens) + GTP-binding nuclear protein Ran (Homo sapiens) + Importin …; Biochemical FRET Rango-importin beta, RanGTP-induced dissociation; Potency, µM (top dose mostly 46.1 µM), without a hit: top-dose activity change, negative = inhibition; actives 0.071% (n = 340,000); AID 540253, 2011; active means falling FRET ratio curve, often poorly fitted, with flat reads before Ran was added; inconclusive means other falling curves, or compound fluorescence or quenching; inactive means flat or rising ratio curve;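 also: potency is read from the fitted curve at half-maximal effect; % of control where 0% means no effect; nearly all actives have a fitted effect of over 45% in size; -100% = wells without RanGTP and RCC1; the record marks most hits as doubtful in a second field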
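Rango FRET biosensor (snurportin-1 IBB flanked by N-terminal EYFP and C-terminal CFP10) at 0.1 uM, with 0.25 uM importin beta in PBS, 1mM DTT, 0.02% Tween-20, 0.1% BSA. 0.6 uM Ran, 2mM GTP and 0.2 uM RCC1 were then added for 45 min at room temperature. Inhibition read as loss of FRET rise.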
Numbers without * were called inactive; ? = inconclusive; . = no result given; & = joins results of further samples.

SMILES | miR-21 FLuc | GLA inh pH 4.5 | Rango-impB inh | Rango dissoc inh
CCOC(=O)c1cccc(NC(=O)c2ccc3c(c2)C(=O)N(CC2CCCO2)C3=O)c1 (centres undefined) | 3% | . | 2.5% | 1%
CCOc1cc2[nH]c(=S)n(CCN3CCCCC3C)c(=O)c2cc1OCC (centres undefined) | -10% | 0 | 2.0% | 0%
Cc1cnc(C(=O)OCC(=O)c2c[nH]c3ccccc23)cn1 | . | . | -2.3% | -15%
Cc1ccc(C)c(OCc2cc(C(=O)N3C[C@@H](C)O[C@@H](C)C3)no2)c1 | -55% | . | 0.8% | 2%
COc1ccc(N2CCN(C3CCCN(Cc4cccc(C)c4)C3)CC2)cc1 (centres undefined) | -7% | . | -1.1% | 1%
CCOc1ccccc1C(=O)N[C@H](C(=O)NCc1ccccc1)C(C)C | -2% | -8 | -5.2% | -20%
O=C(O)CC1SC(=O)N(CC(=O)c2ccccc2)C1=O (centres undefined) | -1% | . | 3.1% | 2%
CCOC(=O)C1=C(O)C(=O)NC(c2ccccc2)=C(OCC)C1 | -19% | 3 | -0.6% | 25%
CC(=O)Nc1ccc(NC(=O)c2nc(-c3ccccc3)oc2C)cc1 | -1% | -10 | ? | -4%
O=C(Cc1cccc(NC(=O)C2CCCN(C(=O)CCc3ccccc3)C2)c1)Nc1ccc(C(=O)N2CCOCC2)cc1 (centres undefined) | . | . | -1.6% | 0%
COc1ccc(OC)c(/C=C/C(=O)N2CCCc3ccccc32)c1 | -25% | 2 | -7.2% | -21%
COc1ccc(CNC(=O)C2CCN(S(=O)(=O)c3ccccc3)CC2)cc1 | 3% | . | 8.1% | 4%
CC(C)Oc1ccc(C(=O)NN2C(=O)NC3(CCCCC3)C2=O)cc1 | . | . | 1.5% | 2%
COc1cc([C@@H]2c3cc4c(cc3[C@@H](O[C@@H]3O[C@@H]5CO[C@@H](C)O[C@H]5[C@H](O)[C@H]3O)[C@H]3COC(=O)[C@H]23)OCO4)cc(OC)c1O | . | . | -5.0% | 0%
Cn1ncc([N+](=O)[O-])c1C(=O)Nc1nc2ccccc2n1CCN1CCCCC1 | -1% | 2 | 1.1% | 4%
CC1(C)CC(=O)C=C(Nc2ccc(OCC(F)(F)C(F)F)cc2)C1 | -1% | -8 | 0.3% | 5%
CCC1CCCCN1C(=O)COC(=O)c1cc2ccccc2cc1O (centres undefined) | -29% | -1 | ? | 0%
Oc1cccc2ccc(/C=C/c3ccccc3Cl)nc12 | -2% | . | 5.4% | -12%
C=CCn1c(SCc2c(Cl)cccc2Cl)nnc1-c1cccnc1 | -5% | 5 | -0.3% | -2%
COc1ccccc1C(=O)C1CCCN(C(=O)C2=CC(=O)CC(C)(C)O2)C1 (centres undefined) | -4% | . | 0.7% | -5%
Cc1ccc(-n2nc(C)cc2NC(=O)c2ccc(C)s2)cc1 | -3% | -3 | 2.4% | 7%
NC1=NS(=O)(=O)NC1c1ccc(Cl)cc1 (centres undefined) | 1% | 5 | 0.3% | -17%
CC(C)Cn1c(C(C)NC(=O)Cc2ccccc2)nc2ccccc21 (centres undefined) | 0% | 3 | -2.2% | 0%
Cc1ccc(C)c(N2N=C(C(=O)O)CCC2=O)c1 | 6% | -4 | -0.2% | 0%
COc1ccc(S(=O)(=O)N2CCCC2CNC(=O)C(=O)NCc2cccs2)cc1 (centres undefined) | . | . | -0.3% | 1%
O=[N+]([O-])c1cccc(NC(=S)N2CCN(S(=O)(=O)c3ccccc3)CC2)c1 | 9% | . | 3.7% | -23%
Cc1ccccc1-c1nn(-c2ccc(F)cc2F)cc1CNCCCN(C)C | -20% | 2 | -2.8% | 0%
CCN(CC)c1ccc(N=Cc2cc(Br)ccc2O)cc1 | ? | -6 | ? | ?
O=C(CN1C(=O)NC2(CCCC2)C1=O)Nc1ccc(F)cc1 | -4% | 1 | 8.7% | -3%
CCC(C)[C@H](NC(=O)C1CCN(C(=O)[C@H](Cc2ccccc2)NC(=O)OC(C)(C)C)CC1)C(=O)O (some centres undefined) | 1% | . | 4.8% | 12%
CCOC(=O)c1c(C)[nH]c(N=Nc2ccccc2)c1C | -70% | -15 | ? | ?
COc1ccc(NC(=O)c2cccc(N3C(=O)C4CCC(C)CC4C3=O)c2)c(OC)c1 (centres undefined) | 0% | . | 5.4% | 8%
CCn1c(=O)cc(OCC(=O)Nc2nc(C)cs2)c2ccccc21 | 0% | 9 | 2.0% | -11%
NN=C1c2ccccc2-c2ccc(N)cc21 | . | . | -3.2% | -3%
COc1ccc(NC(=O)CN2C(=O)COc3ccc(S(=O)(=O)N4CCCCCC4)cc32)cc1 | -2%&3% | . | 3.9% | 1%
CCc1nnc(NS(=O)(=O)c2ccc(NS(=O)(=O)c3ccc(NC(C)=O)cc3)cc2)s1 | 0% | 3 | . | .
CCc1ccc(-c2cc3c(=O)n(CC(=O)NCCCN4CCN(CC)CC4)nc(C)n3n2)cc1 | -5% | . | 0.8% | 2%
CCN(CC)C(=O)c1[nH]cnc1C(=O)N[C@@H](C)C(=O)OCc1ccccc1 | 0% | 4 | 2.2% | 16%
COc1cc(SC)ccc1C(=O)N1CCN(c2ccc(O)cc2)CC1 | -6% | 2 | 4.3% | -14%
COc1ccc(CNC(=O)COC(=O)c2n[nH]c3ccccc23)cc1OC | 3% | -1 | -0.7% | -3%
Cc1nn(CC(=O)N/N=C/c2cccs2)c(C)c1[N+](=O)[O-] | 4% | -1 | 1.6% | 5%
CCOC(=O)C1CCN(C(=O)COC(=O)C23CC4CC(CC(C4)C2)C3)CC1 | . | . | 2.5% | 12%
Cc1ccc(C(=O)OCC(=O)Nc2ccccc2)cc1NC(=O)c1ccco1 | -19% | -7 | 5.5% | -12%
CCCc1nnc(NC(=O)CCC(=O)N2CCN(S(=O)(=O)c3ccc(F)cc3)CC2)s1 | 2% | -14 | 1.3% | -3%
CCn1cc(CN2CCC(n3nccc3NC(=O)c3cccc(F)c3)CC2)cn1 | -3% | . | -0.5% | 0%
COc1ccccc1NC(=O)c1ccc(-c2ccccc2F)o1 | -34% | -4 | -1.1% | 1%
COc1ccc(C)cc1NC(=O)C1CCN(C(=O)c2ccc(C(C)(C)C)cc2)CC1 | -19% | . | -0.8% | -5%
CCOc1ccc(S(=O)(=O)N2CCN(C(=O)c3ccncc3)CC2)cc1 | -1% | . | 4.0% | 2%
Cc1ccc2nc(Nc3ccccc3)c(C=O)c(=O)n2c1 | -17% | . | -0.7% | 0%
Nn1c(SCC(=O)Nc2ccc(S(=O)(=O)N3CCCC3)cc2)nnc1C(F)(F)F | -5% | -1 | -1.1% | 1%
c1ccc(-n2cnc3ccccc32)nc1 | 2% | . | 2.4% | -4%
CC(/C=C/c1ccc(C)o1)=C\C(=O)O | -2% | -2 | 0.9% | 1%
Cc1ccc(-n2c(Cn3ncc4ccccc4c3=O)n[nH]c2=S)cc1 | 5% | 3 | 5.7% | 0%
CCN(CC)C(=O)C1(P(=O)(c2ccccc2)c2ccccc2)CCC1 | -2% | 0 | 0.9% | 12%
O=C(NC(=S)NC(=O)c1ccccc1F)c1ccccc1F | -25% | 1 | -2.3% | 12%
CC1(C)NC(=O)N(CC(O)CN2C(=O)CCC2=O)C1=O (centres undefined) | -2% | 7 | ? | 7%
COc1ccc(C)cc1S(=O)(=O)NCc1cccs1 | 4% | . | -3.4% | 13%
CCOC(=O)N1CCN(C(=O)c2ccc(CSc3ccc(Cl)cc3)cc2)CC1 | 1% | -3 | 4.1% | -18%
O=C1N(C2CCCC2)C[C@@H]2C[C@@H](c3cccn3-c3ccccn3)N3CCC[C@@]123 | -1% | 6 | 0.5% | 3%
Cn1c(=O)[nH]c2cc3ccccc3cc21 | -13% | -4 | -1.7% | 2%

(cont.)
SMILES | miR-21 FLuc | GLA inh pH 4.5 | Rango-impB inh | Rango dissoc inh
CN(C)CCOCCSc1ccc(Cl)cc1 | -6% | 7 | 1.7% | 18%
O=C(CCSC1=NCCCN1)c1ccc(F)cc1 | . | . | 0.0% | -5%
NC(=O)C(c1ccccc1)c1ncc(C(F)(F)F)cc1Cl (centres undefined) | -1% | 8 | -3.1% | -2%
O=C(c1cccc(-n2cnnn2)c1)N1CC=C(c2ccccc2)CC1 | -7% | -2 | 0.7% | 22%
COC(=O)c1ccccc1Nc1ccccc1 | -2% | -20 | 2.8% | 7%
Cc1cn([C@@H](CCCCN)C(=O)NCCCCCCCCCCC(=O)N2CCNCC2)nn1 | . | . | 4.1% | 1%
O=C(NC1CCN(Cc2ccc(Cl)cc2Cl)CC1)c1ccccc1 | -4% | . | -4.9% | 32%
Cc1ccc(CNC(=O)Cn2nnc(C(=O)Nc3ccc(Br)cc3)c2N)cc1 | -6% | . | 0.9% | 11%
Cc1nc2ccccc2cc1C(=O)NCc1ccc(F)cc1 | 7% | 5 | -1.1% | -1%
Cc1cccc(C)c1OCC(=O)NNC(=O)CCCn1c(=O)oc2ccccc21 | . | . | 6.5% | -1%
CC(C)c1ccc(S(=O)(=O)N2CCN(C(=O)C3CCCC3)CC2)cc1 | 2% | . | 2.1% | -2%

2 entries picked at random from those above, as already listed:
SMILES | miR-21 FLuc | GLA inh pH 4.5 | Rango-impB inh | Rango dissoc inh
Cc1ccc(C(=O)OCC(=O)Nc2ccccc2)cc1NC(=O)c1ccco1 | -19% | -7 | 5.5% | -12%
CC(C)c1ccc(S(=O)(=O)N2CCN(C(=O)C3CCCC3)CC2)cc1 | 2% | . | 2.1% | -2%

Laid out differently: entries from further up
The line under a structure holds: miR-21 FLuc | GLA inh pH 4.5 | Rango-impB inh | Rango dissoc inh
O=C(c1cccc(-n2cnnn2)c1)N1CC=C(c2ccccc2)CC1
→ -7% | -2 | 0.7% | 22%
COC(=O)c1ccccc1Nc1ccccc1
→ -2% | -20 | 2.8% | 7%
Cc1cn([C@@H](CCCCN)C(=O)NCCCCCCCCCCC(=O)N2CCNCC2)nn1
→ . | . | 4.1% | 1%
O=C(NC1CCN(Cc2ccc(Cl)cc2Cl)CC1)c1ccccc1
→ -4% | . | -4.9% | 32%
Cc1ccc(CNC(=O)Cn2nnc(C(=O)Nc3ccc(Br)cc3)c2N)cc1
→ -6% | . | 0.9% | 11%
Cc1nc2ccccc2cc1C(=O)NCc1ccc(F)cc1
→ 7% | 5 | -1.1% | -1%
Cc1cccc(C)c1OCC(=O)NNC(=O)CCCn1c(=O)oc2ccccc21
→ . | . | 6.5% | -1%

Source: PubChem BioAssay

Not all compounds are listed; rates above refer to the full screens.
